Bioassay records from PubChem.
Rango-impB inh: prevents formation of the Rango-importin beta complex | Q14974 | Rango CFP/YFP FRET sensor + importin beta, 45 min | Potency, µM (titrated, usually from 92.2 µM), for inactives: top-dose inhibition of complex formation | actives 0.031% (n = 340,000) | AID 540263; active = rising FRET ratio curve, often small or poorly fitted; inconclusive = mostly compound fluorescence or quenching in the first reads; inactive = flat curves in all reads;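 further: potency means the concentration at half of the fitted maximal effect; 0% = DMSO wells and 100% = buffer wells lacking importin beta; nearly all actives have a fitted effect of over 15% in size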
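FRET biosensor (snurportin 1 IBB flanked by EYFP and cerulean), 50 nM, with compound 5 min, then 0.125 microM importin beta in PBS, 1 mM DTT, 0.02% Tween-20, 0.1% BSA. CFP/YFP ratio read after 45 min at room temperature; pre-read flags interference.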
GLA inh pH 4.5: alpha-galactosidase A (human) inhibition, pH 4.5; P06280; purified enzyme, 4-MU-alpha-Gal fluorescence, pH 4.5; activity change, negative = inhibition, % at 105 µM; 230,000 tested, under 10 active; AID 1467; inconclusive = small, poorly fitted or top-dose-only inhibition, or a rising curve; inactive = flat fitted curve, though single readings scatter; no compound was filed as active;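 further: 0% = full activity with enzyme and -100% = basal without enzyme; dose as in the result columns while the protocol names 77 µM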
Target sequence (P06280 whole entry, looked up): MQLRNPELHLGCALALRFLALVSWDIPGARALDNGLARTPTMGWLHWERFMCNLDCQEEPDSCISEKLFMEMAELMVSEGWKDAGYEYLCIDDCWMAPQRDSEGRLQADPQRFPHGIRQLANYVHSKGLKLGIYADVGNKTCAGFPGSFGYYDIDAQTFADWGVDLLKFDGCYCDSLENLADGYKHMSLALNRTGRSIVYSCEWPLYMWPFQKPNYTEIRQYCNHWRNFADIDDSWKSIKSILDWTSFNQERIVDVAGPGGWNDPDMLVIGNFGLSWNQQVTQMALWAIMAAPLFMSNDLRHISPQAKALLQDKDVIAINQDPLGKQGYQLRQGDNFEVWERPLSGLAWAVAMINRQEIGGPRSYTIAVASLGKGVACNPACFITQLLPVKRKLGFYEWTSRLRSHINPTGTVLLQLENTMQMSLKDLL
miR-21 FLuc: miR-21 reporter, rising signal | HeLa miR-21 FLuc reporter, luciferase, 48 h | Potency, µM (doses to about 38.3 µM), for inactives: at the highest dose reporter change, positive = more light | 340,000 tested, under 10 active; active = well fitted rising curve with a large enough effect; inconclusive = small, poorly fitted or top-dose-only effect; inactive = no such curve, though single readings can be large or run the other way;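 further: % of control where 0% means no effect; miR-21 action dims this reporter so a rising signal means less miR-21 action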
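Luminescence from a firefly luciferase reporter carrying a miR-21 binding site downstream, stably expressed under a CMV promoter in HeLa cells that make miR-21 endogenously, reports miRNA modulation after 48 h compound exposure up to approximately 40uM final.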
Rango dissoc inh: inhibition of RanGTP-driven Rango-importin beta dissociation. O95149+P62826. Potency, µM (doses to about 46.1 µM), for the others: top-dose activity change, negative = inhibition. Biochemical FRET Rango-importin beta, RanGTP-induced dissociation. actives 0.071% (n = 340,000); active means falling FRET ratio curve, often poorly fitted, with flat reads before Ran was added; inconclusive means other falling curves, or compound fluorescence or quenching; inactive means flat or rising ratio curve;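 further: potency means the concentration at half of the fitted maximal effect; % of control where 0% means no effect; nearly all actives have a fitted effect of over 45% in size; -100% = wells without RanGTP and RCC1; the record marks most hits as doubtful in a second field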
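Two FRET readings bracket the reaction: one 5 min after compound meets Rango–importin beta, another 45 min after RanGTP-RCC1 (0.6 uM Ran, 0.2 uM RCC1, 2 mM GTP) is added. Only the second defines inhibition.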
Active calls of the source: *; ? = inconclusive; . = not tested or not shown; & = joins results of further samples.

item	Rango-impB inh	GLA inh pH 4.5	miR-21 FLuc	Rango dissoc inh	canonical_smiles
1	1.3%	-5	-1%	8%	CCOC(=O)c1c(C)nn(-c2ncccc2NC(=O)NC(C)C)c1C
2	?	.	0%	-12%	COc1cc2c(cc1OC)CN(c1ccc3ccccc3n1)CC2
3	0.9%	.	.	-3%	CC(=O)Nc1ccc(NC(=O)C(C)OC(=O)CCC2CCCC2)cc1 (stereo unspecified)
4	3.1%	.	-11%	9%	COc1ccc(/C=N/NC(=O)c2cccnc2)cc1O
5	-0.9%	1	15%	-2%	CC1(C)CC(CCNC(=O)CCl)(c2ccccc2)CCO1 (stereo unspecified)
6	-2.9%	.	1%	24%	COc1ccccc1C1(O)C(=O)Nc2ccc(C)cc21 (stereo unspecified)
7	-4.5%	-3	-1%	0%	CC1CN(C(=O)COC(=O)c2ccc(Cl)nc2)CC(C)O1 (stereo unspecified)
8	-0.8%	-1	13%	-8%	CCOc1ccc(C(=O)NCCn2cc(SCC(=O)Nc3cc(C)on3)c3ccccc32)cc1
9	-2.2%	11	5%	-14%	Cn1c(SCC(=O)Nc2sccc2C(N)=O)nnc1-c1ccncc1
10	9.7%	.	-4%	7%	COc1ccc(-c2csc(NC(=S)NC(=O)/C=C/c3ccc(C(C)C)cc3)n2)cc1OC
11	-0.8%	3	-34%	-2%	CCC(C)NC(=O)c1ccc(N2CCC3(CC2)OCCO3)c([N+](=O)[O-])c1 (stereo unspecified)
12	4.4%	-2	-4%	-4%	O=[N+]([O-])c1cccc(S(=O)(=O)c2ccc(N3CCCCC3)c([N+](=O)[O-])c2)c1
13	-1.2%	4	5%	12%	Cn1c(CNC(=O)OC(C)(C)C)nnc1SCC(=O)N1CCOCC1
14	0.1%	.	0%	8%	COc1ccc(NC(=O)c2cn(C)c(=O)c3cc(OC)c(OC)cc23)cc1OC
15	0.1%	.	-1%	6%	O=C(NCCCn1ccnc1)c1nc(Cn2ccc([N+](=O)[O-])n2)no1
16	-2.0%	9	-1%	9%	COc1ccc(OC)c(NC(=O)c2ccc(NS(C)(=O)=O)cc2)c1
17	0.9%	8	-3%	-16%	N/C(COc1ncn(-c2ccccc2)n1)=N\S(=O)(=O)c1ccccc1
18	?	-2	23%	-19%	CCN1c2ccccc2NC2N=C(OC)C(c3ccccc3)C21 (stereo unspecified)
19	.	-2	-17%	.	O=C(CN1CCN(c2ccc(O)cc2)CC1)NC1CCCc2ccccc21 (stereo unspecified)
20	0.6%	-6	-9%	6%	N#C/C(Cn1c[n+](NC(=O)Nc2ccccc2)cn1)=N/O
21	6.1%	-10	5%	-5%	CC1CN(CC(O)COc2ccccc2C(C)(C)C)CC(C)O1 (stereo unspecified)
22	2.7%	4	0%	2%	O=C(NNS(=O)(=O)c1ccccc1C(F)(F)F)c1cccc(S(=O)(=O)Nc2ccccc2Cl)c1
23	-1.4%	.	.	-2%	CC1Cc2ccccc2N1C(=O)c1ccc2c(c1)OCO2 (stereo unspecified)
24	0.0%	.	0%	-4%	COc1cccc(C2C(C(=O)c3ccc(C)o3)=C(O)C(=O)N2CCN2CCOCC2)c1 (stereo unspecified)
25	-1.3%	7	-5%	8%	NC(=O)c1nn(-c2ccccc2)nc1NC(=O)CN1CCCCC1

Rewritten with one line to a screen: part of the list above
11: CCC(C)NC(=O)c1ccc(N2CCC3(CC2)OCCO3)c([N+](=O)[O-])c1 (stereo unspecified)
14: COc1ccc(NC(=O)c2cn(C)c(=O)c3cc(OC)c(OC)cc23)cc1OC
1: CCOC(=O)c1c(C)nn(-c2ncccc2NC(=O)NC(C)C)c1C
12: O=[N+]([O-])c1cccc(S(=O)(=O)c2ccc(N3CCCCC3)c([N+](=O)[O-])c2)c1
15: O=C(NCCCn1ccnc1)c1nc(Cn2ccc([N+](=O)[O-])n2)no1
5: CC1(C)CC(CCNC(=O)CCl)(c2ccccc2)CCO1 (stereo unspecified)
25: NC(=O)c1nn(-c2ccccc2)nc1NC(=O)CN1CCCCC1
Screen / compound no.,11,14,1,12,15,5,25
Rango-impB inh,-0.8%,0.1%,1.3%,4.4%,0.1%,-0.9%,-1.3%
GLA inh pH 4.5,3,.,-5,-2,.,1,7
miR-21 FLuc,-34%,0%,-1%,-4%,-1%,15%,-5%
Rango dissoc inh,-2%,8%,8%,-4%,6%,-2%,8%

Remaining list, next part
item	Rango-impB inh	GLA inh pH 4.5	miR-21 FLuc	Rango dissoc inh	canonical_smiles
26	-0.4%	.	-1%	1%	Cc1cc(C)n(CCCNC(=O)Cn2nnnc2CN2C[C@@H](C)O[C@@H](C)C2)n1
27	-3.0%	.	27%	-8%	NC(=O)c1nsc(C(=O)N(c2ccccc2F)C(C(=O)NCc2ccc(F)cc2)c2ccc(O)cc2)c1N (stereo unspecified)
28	-2.0%	.	7%	3%	Cc1ccc(C)c(N2CCN(CC3CCCCC3)CC2)c1
29	3.1%	-10	-6%	-20%	CCC(C)N1C(=O)CCC1C(=O)NCc1ccc2c(c1)OCO2 (stereo unspecified)
30	2.2%	6	-18%	-17%	COc1ccc2c(c1)-c1nc(/N=C/c3cccc(OC)c3O)sc1CC2
31	-0.3%	.	-55%	9%	CCNC(=O)c1ccc(NS(=O)(=O)c2ccc3[nH]c(=O)[nH]c3c2)cc1
32	-1.1%	.	-33%	7%	Cc1cccc(N2CCN(C(=O)c3cc(COc4ccc(F)c(F)c4)on3)CC2)n1
33	-3.5%	.	.	-2%	CCN(CC(=O)NCc1cccs1)S(=O)(=O)c1cc(NC(C)=O)ccc1OC
34	0.1%	1	-1%	-5%	COc1ccc(/C=C/C(=O)Nc2cccc(N3CCOCC3)c2)cc1OC
35	1.2%	.	.	3%	O=C(CCc1nc2ccccc2c(=O)[nH]1)Nc1cc(Cl)ccc1N1CCCC1
36	0.0%	.	-1%	-9%	COc1ccc(NC(=O)CN2CCC(C(=O)c3ccc(F)cc3)CC2)c(OC)c1
37	.	?	-7%	.	Cc1cccc(-n2c(-c3ccco3)nc3nc4ccccc4nc32)c1
38	1.4%&0.4%	-10&-8&3&3	-1%	-1%&0%	Nc1c(Br)cc(Br)cc1CNC1CCC(O)CC1 (stereo unspecified)
39	-0.3%	-7	?	-15%	CCOc1ccc(N2C(=O)C3C(C2=O)C3(c2ccccc2)c2ccccc2)cc1 (stereo unspecified)
40	-2.9%	9	-1%	1%	CC(C)CNC(=O)C1CCCN(S(=O)(=O)c2ccc(-n3cnnn3)cc2)C1 (stereo unspecified)
41	0.2%	-6	-2%	-2%	O=C(NCc1ccco1)C(c1ccco1)N(Cc1cccs1)C(=O)Cn1nnc2ccccc21 (stereo unspecified)
42	-1.0%	-4	0%	?	Cc1ccc(S(=O)(=O)NC(c2ccccc2)C(C)C(=O)n2nc(C)cc2C)cc1 (stereo unspecified)
43	1.4%	-8	3%	-7%	Cn1c(=O)c([N+](=O)[O-])c(NCCCn2ccnc2)c2ccccc21
44	4.1%	-14	3%	8%	COc1cc(C(=O)Nc2cccc(-c3nnc(-c4ccco4)o3)c2)ccc1OC(C)=O
45	-1.7%	.	-5%	2%	CCn1c(=O)c2ccccc2n(CC(=O)NCCC2=CCCCC2)c1=O
46	0.0%	.	-1%	-3%	CC1CC(C)CN(S(=O)(=O)c2ccc(NC(=O)C3CC(=O)N(Cc4ccccc4)C3)cc2)C1 (stereo unspecified)
47	-0.5%	-3	2%	-14%	CCOc1nc(-c2ccccc2Cl)nc2ccccc12
48	-0.8%	9	-3%	-6%	CC(OC(=O)C1CC1)C(=O)Nc1ccc([N+](=O)[O-])cc1Cl (stereo unspecified)
49	4.2%	.	-2%	9%	O=C(CSc1nnnn1-c1ccccc1)Nc1ccccc1
50	-0.1%	-5	-51%	-13%	CC1CCc2sc(C(=O)N/N=C/c3ccc(O)cc3)cc2C1 (stereo unspecified)

Quoted at random: 5 entries already listed.
item	Rango-impB inh	GLA inh pH 4.5	miR-21 FLuc	Rango dissoc inh	canonical_smiles
16	-2.0%	9	-1%	9%	COc1ccc(OC)c(NC(=O)c2ccc(NS(C)(=O)=O)cc2)c1
46	0.0%	.	-1%	-3%	CC1CC(C)CN(S(=O)(=O)c2ccc(NC(=O)C3CC(=O)N(Cc4ccccc4)C3)cc2)C1 (stereo unspecified)
27	-3.0%	.	27%	-8%	NC(=O)c1nsc(C(=O)N(c2ccccc2F)C(C(=O)NCc2ccc(F)cc2)c2ccc(O)cc2)c1N (stereo unspecified)
25	-1.3%	7	-5%	8%	NC(=O)c1nn(-c2ccccc2)nc1NC(=O)CN1CCCCC1
29	3.1%	-10	-6%	-20%	CCC(C)N1C(=O)CCC1C(=O)NCc1ccc2c(c1)OCO2 (stereo unspecified)

(list continues)
item	Rango-impB inh	GLA inh pH 4.5	miR-21 FLuc	Rango dissoc inh	canonical_smiles
51	-0.1%	1	2%	-2%	CC1(C)CC(CCN)(Cc2ccccc2Cl)CCO1 (stereo unspecified)
52	?	-10&-2	-13%	?	Cn1c(N)c(C(=O)COC(=O)c2cc(C3CC3)nc3ccccc23)c(=O)n(Cc2ccccc2)c1=O
53	-0.4%	4	2%	1%	COc1ccccc1OCCC(=O)OCCN1C(=O)c2ccccc2C1=O
54	-4.5%	-1	1%	-8%	C=C(C)C(=O)Nc1cccc(C2=NOC3(C2)C[C@@H](C(N)=O)N(C(=O)C2(C)CC2)C3)c1 (stereo partly specified)
55	-0.2%	2	1%	15%	Cc1cc(Br)ccc1OCC(=O)NNC(=O)c1cnccn1
56	-1.5%	5	-37%	9%	COC(=O)c1ccc2nc(NC(=O)C3CCCCC3)sc2c1
57	0.1%	.	-22%	-11%	COc1cc(/C=N/Nc2cc(C)nc(N)n2)ccc1O
58	-3.6%	.	-38%	?	CC(=O)c1sc(NC(=O)c2ccc(Br)o2)nc1C
59	2.6%	-18	4%	-4%	Cc1ccc(C)c(C(C)NC(=O)c2ccccc2Br)c1 (stereo unspecified)
60	-1.4%	.	1%	-16%	Cc1ccccc1NC(=S)N1CCN(c2ccccc2)CC1
61	-2.1%	-13	-12%	-4%	O=C(c1ccc2c(c1)OCO2)N1CCN(c2ccc(Cl)cc2)CC1
62	-0.3%	1	3%	11%	C/C(=N\NC(=O)C(O)(c1ccccc1)c1ccccc1)c1ccc(C)o1
63	-1.6%	-5	15%	-4%	Cc1ccc(S(=O)(=O)N2CCN(C(=O)C3CCN(C(=O)c4ccccc4C)CC3)CC2)cc1C
64	3.0%	.	-5%	2%	O=C(O)c1ccc(COc2ccc([N+](=O)[O-])cc2)o1
65	-1.7%	2	?	-15%	CN1C/C(=C/c2ccsc2)C(=O)/C(=C/c2ccsc2)C1
66	-0.1%	.	-2%	-9%	CC(Sc1nnc(CNC(=O)c2ccccc2F)n1C)C(=O)Nc1nccs1 (stereo unspecified)
67	-0.3%	0	-5%	-2%	O=C(CSc1nc(-c2ccc(F)cc2)cs1)N1CCN(C(=O)c2ccco2)CC1
68	-1.5%	.	-17%	-10%	CCCCNC(=O)C1(O)c2ccccc2NC(=O)N1c1ccc(Cl)cc1 (stereo unspecified)
69	4.9%	.	0%	13%	COc1cccc(NC(=O)CCCNC(=O)Cn2cnc3sc(C)c(C)c3c2=O)c1
70	1.4%	.	-8%	-2%	Nn1cnnc1N/N=C/c1cccc(Cl)c1Cl
71	-3.8%	-6	-17%	5%	COc1cc(CNc2ccc3[nH]c(=O)[nH]c3c2)cc(Cl)c1OCC(=O)NC(C)(C)C
72	-2.2%	4	-1%	3%	CN1CCC(=NNC(=O)C(=O)Nc2cccc(Br)c2)CC1
73	2.4%	.	5%&1%	-1%	COc1ccc(OC)c(NC(=O)C(CCSC)NS(=O)(=O)c2cccs2)c1 (stereo unspecified)
74	3.9%	9	7%	0%	CCOc1ccc2c(c1)[N+](C)(C)C(C)(C)C=C2C
75	?	.	-2%	?	CCCN1CC(=O)N2C(c3ccccc3)c3[nH]c4ccccc4c3C[C@H]2C1=O (stereo partly specified)
76	6.7%	.	-2%	7%	CCOCCCNC(=O)CN1C(=O)NC(Cc2c[nH]c3ccccc23)C1=O (stereo unspecified)

The list is partial (hit frequency here may not be typical).
